Source: PubChem BioAssay
N370S GC – N370S glucocerebrosidase modulation, Gaucher chaperone candidate; Potency, µM (highest dose often 59.4 µM), without a hit: at the top dose activity change, negative = inhibition, actives largely listed as inhibitors; N370S GC spleen homogenate, 4MU-glucoside fluorescence; 330,000 compounds, 0.092% hits; AID 2101; P04062;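 also: 0% = full enzyme activity and -100% = no enzyme basal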
TDP1 block – TDP1 (human) enzyme inhibition. Q9NUW8. recombinant TDP1, AlphaScreen DNA substrate cleavage. Potency, µM (doses to about 130 µM), inactives show at the highest dose activity change, negative = inhibition, most hits filed as inhibitors. 350,000 compounds, 0.28% hits. AID 485290; also: nearly all actives have a fitted effect of over 40% in size
Target sequence (Q9NUW8 whole entry, looked up): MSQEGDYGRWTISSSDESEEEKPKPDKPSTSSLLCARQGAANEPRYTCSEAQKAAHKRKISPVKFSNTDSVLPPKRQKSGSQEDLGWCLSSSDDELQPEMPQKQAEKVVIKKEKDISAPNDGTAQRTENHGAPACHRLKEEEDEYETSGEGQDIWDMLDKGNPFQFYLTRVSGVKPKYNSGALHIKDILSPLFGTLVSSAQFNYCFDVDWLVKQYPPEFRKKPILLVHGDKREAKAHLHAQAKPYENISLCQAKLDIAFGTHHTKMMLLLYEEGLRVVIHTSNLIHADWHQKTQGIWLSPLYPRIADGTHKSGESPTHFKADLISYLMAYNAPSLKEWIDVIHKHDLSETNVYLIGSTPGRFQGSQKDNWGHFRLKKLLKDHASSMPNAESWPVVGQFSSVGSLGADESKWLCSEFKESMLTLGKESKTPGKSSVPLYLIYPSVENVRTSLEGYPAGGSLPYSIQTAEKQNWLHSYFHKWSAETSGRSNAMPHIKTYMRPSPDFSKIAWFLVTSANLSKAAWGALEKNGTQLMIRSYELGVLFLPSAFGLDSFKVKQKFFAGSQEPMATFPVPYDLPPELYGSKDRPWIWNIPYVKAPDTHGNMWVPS
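Compounds were preincubated with Tdp1 (1 nM final) for 15 min at room temperature before substrate (15 nM final) started a 5 min reaction; beads (10 ug/ml final) were then added for 10 min before AlphaScreen detection.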
* marks the source's active call; other numbers are inactive results; ? = inconclusive; nt = no result given; [ ] = dose if it differs, or a comment. Calls follow the shape of the dose curve; as a rule, active = well fitted curve in the direction sought with a large enough effect; inconclusive = small, poorly fitted or top-dose-only effect, or another doubt; inactive = no such curve, though single readings can be large; an effect the other way counts as inactive or inconclusive. Unless noted, % is scaled to controls: 0 for no effect and ±100 for the full control effect; potency is read from the fitted curve at half-maximal effect. These rows are one share of the data, and most or all hits are left out here.

SMILES	N370S GC	TDP1 block
Cc1ccc(CN2CC(C(=O)Nc3cccc(S(=O)(=O)N4CCCCC4)c3)CC2=O)cc1 (stereo unspecified)	-2.0%	1.9%
S=C(NCC1CCCO1)Nc1ccccc1Cl (stereo unspecified)	1.8%	2.2%
COc1ccc(OCC2NCCc3cc(OC)c(OC)cc32)cc1 (stereo unspecified)	-3.2%	1.0%
CCOC(=O)Nc1cccc(Nc2ccccc2)c1	4.8%	7.2%
COC(=O)c1ccc2c(=O)n(CC3CCCO3)c(SCC(=O)NCCc3ccc(S(N)(=O)=O)cc3)nc2c1 (stereo unspecified)	-6.7%	1.2%
COc1ccc(N2C(=O)C3CCCN3C2c2ccc(C)o2)cc1 (stereo unspecified)	4.9%	1.2%
CCN(CC)CCCNc1nc2cc(OC)c(OC)cc2c2nc(-c3cccnc3)nn12	0.2%	4.5%
Cc1ccc2c(COC(=O)CC3Sc4ccccc4NC3=O)cc(=O)oc2c1C (stereo unspecified)	-26.6%	5.8%
Cc1ccc(NC(=O)c2cccc(NC3=NC4CS(=O)(=O)CC4S3)c2)cc1C (stereo unspecified)	0.7%	nt
Nc1nc(SCC(=O)NCc2ccccc2Cl)[nH]c(=O)c1NC(=O)c1ccccc1F	16.6%	-0.6%
CCOC(=O)N1N=C(C)CC1(O)c1ccc(Cl)cc1 (stereo unspecified)	-0.2%	6.0%
COc1cccc2c(=O)n(CC(=O)N3CCc4ccccc43)ccc12	-11.6%	5.4%
CCCCOC(=O)Nc1sc2c(c1C(=O)OC)CCC2	11.5%	0.0%
CCCCOc1ccc(C(=O)Nc2ccc(OCC(=O)N3CCOCC3)cc2)cc1	6.6%	5.1%[56.1 µM]
CCCNC(=O)c1ccccc1C(=O)NCCC	3.8%	0.0%
CC1CCN(CCCNC(=O)C2CCC(CNS(=O)(=O)c3cccc4nsnc34)CC2)CC1 (stereo unspecified)	2.0%	2.4%
CCCN1C2CCCC1CC(NC(=O)NC1CCCCC1)C2 (stereo unspecified)	6.3%	0.0%
C(=C\c1cc(/C=C/c2ccccc2)ncn1)/c1ccccc1	-18.5%	4.1%
Cc1nc(SCC(=O)NC2CCCCC2)[nH]c(=O)c1C	-3.9%	nt
CC(C)[C@H]1COCCS(=O)(=O)N1Cc1cccc(Cl)c1	2.5%	nt
Cc1ccc(C(=O)N2CCN(Cc3nc4sc5c(c4c(=O)[nH]3)CCCC5)CC2)cc1	1.3%	13.9%
CC1=C(C(=O)OCc2ccccc2)C(c2cccnc2)c2c(n(C)c(=O)n(C)c2=O)N1 (stereo unspecified)	3.2%	2.0%
Cc1ccc(-c2ccc(=O)n(CCC(=O)N3CCN(c4cccc(C)c4)C(C)C3)n2)cc1 (stereo unspecified)	-8.8%	nt
Cc1nn(CC(=O)Nc2cccnc2)c(C)c1[N+](=O)[O-]	4.2%	8.2%
O=C1/C(=C/c2ccc([N+](=O)[O-])cc2)C=C(c2ccccc2)N1c1ccccc1	2.7%	3.1%
CC1CCC2[C@](C)(CO)C(O)CC[C@]2(C)C12CCC(CO)(CCO)O2 (stereo partly specified)	-9.1%	11.9%[56.1 µM]
Cc1ccc(NC(=S)N2CCC(C(N)=O)(N3CCCCC3)CC2)c(C)c1	-4.6%	2.6%
COCCNC(=S)N1CCN(C(=O)C(=O)Nc2ccc(C(=O)OC)cc2)CC1	-1.1%	-0.6%
COc1ccc([C@H]2Sc3ccccc3N(CCN(C)C)C(=O)[C@H]2OC(C)=O)cc1	-7.0%[21.6 µM]	5.7%[56.1 µM]
Cc1ccc(S(=O)(=O)NC(C)(C)CN2CCc3ccccc3C2)cc1	-1.2%	2.8%
Cc1ccc(C(O)(CNCc2ccccc2)c2ccccc2)cc1 (stereo unspecified)	4.2%	nt
S=C(c1ccc[nH]1)N1CCOCC1	-0.2%	5.2%
CC(=O)c1cccc(NC(=O)CCC2CCCC2)c1	-13.9%	3.1%
CN(Cc1cccnc1)Cc1cn[nH]c1-c1ccc(-c2ccccc2)cc1	?	2.4%
Cc1ccc(N(C)C(=O)c2cc(S(=O)(=O)N3CCCC3)cn2C)cc1	-13.0%	nt
O=C(/C=C/c1cccc(O)c1)c1ccc(N2CCOCC2)cc1	3.9%	9.5%
Cc1ccc(S(=O)(=O)CC(=O)N2CC(C)OC(C)C2)cc1 (stereo unspecified)	-2.8%	4.3%
Cc1ccc(SCCN2CCC(C)CCC2=O)cc1 (stereo unspecified)	1.1%	nt
CN1CCC(=NNC(=O)CSc2ccc(Cl)cc2)CC1	-28.1%	-3.6%
CC1CCCN(C(=O)c2cc(S(=O)(=O)N3CCCCC3)c[nH]2)C1 (stereo unspecified)	-3.5%	nt
Cc1cnc(C(=O)Nc2ccc(-n3cnnn3)cc2)cn1	5.2%	2.3%
C[C@@H](CSc1ccccc1)CN1CC[C@H](NC(=O)OCc2ccccc2)CCC1=O	-24.8%	nt
COc1ccccc1N(C)S(=O)(=O)c1ccc(C(=O)NC(C)c2ccccc2)cc1 (stereo unspecified)	-4.5%	0.6%
COc1cccc(C(=O)Nc2nnc(S(=O)(=O)N(C)c3ccccc3)s2)c1	2.0%	0.5%
N#CC1=C(N)Oc2cc(O)ccc2C1c1cccnc1 (stereo unspecified)	-1.5%	1.2%
CCC1(c2ccc(F)cc2)NC(=O)N(CC(=O)N2CCN(S(=O)(=O)c3ccc(C)cc3)CC2)C1=O (stereo unspecified)	-21.1%	nt
Cn1cc(P(=S)(N2CCOCC2)N2CCOCC2)cc1P(=S)(N1CCOCC1)N1CCOCC1	-2.9%	nt
COc1c(-c2ccc([N+](=O)[O-])cc2[N+](=O)[O-])c(=O)n(C)c(=O)n1C	-15.5%	nt
CCn1cc(/C=C/C(=O)NCc2c(C)nn(C)c2C)cn1	-11.3%	1.0%
O=c1[nH]c(=S)[nH]cc1Oc1ccc(Cl)cc1Cl	-2.6%	nt
CCOC(=O)c1c(NC(=O)C2C3C=CC(C3)C2C(=O)O)sc2c1CCCC2 (stereo unspecified)	?	6.0%
COc1ccc(S(=O)(=O)N2CCC(C(=O)N3CCc4ccccc4C3)CC2)cc1OC	-0.2%[2.35 µM]	2.0%
COC(=O)c1ccc(CSc2cc(C)c3ccccc3n2)o1	18.7%	-5.1%
COc1ccc(C2CC(O)(C(C)(C)O)NO2)cc1 (stereo unspecified)	-6.2%[2.35 µM]	-1.0%
O=C1/C(=C/c2ccc(O)c(O)c2)SC(=S)N1Nc1ccccc1	-11.7%	8.1%
O=C(CNc1cc(S(=O)(=O)N2CCCC2)ccc1OCC(F)(F)F)Nc1ccc(SC(F)F)cc1	6.6%	-4.7%
CC[C@@H]1C=C(C(=O)O)[C@H](c2ccc3c(c2)OCO3)N1S(=O)(=O)c1ccc(C)cc1	nt	2.6%
Cc1cc(=O)n2c(nc3ccccc32)[nH]1	3.9%	2.2%
Cc1c(C(=O)NCCN2CCOCC2)oc2ccccc12	-5.9%	2.3%
Cc1cc(C)c(S(=O)(=O)NCc2ccccn2)c(C)c1	7.6%	nt

(list continues)
SMILES	N370S GC	TDP1 block
Cn1nc(C(C)(C)C)c([N+](=O)[O-])c1C(=O)Nc1ccccc1	10.6%	3.1%
c1ccc(Cn2cc(-c3cccnc3)cn2)cc1	nt	0.7%
CC(=O)N1N=C(c2ccccc2)CC1c1cn(C)c2ccccc12 (stereo unspecified)	15.9%	5.5%
COc1cc(C)ccc1N(CCCN1C(=O)c2cccc3cccc(c23)C1=O)C(=O)c1cccs1	6.1%	5.3%
CN(C(=O)c1ccc2c(c1)OCO2)C1CCS(=O)(=O)C1 (stereo unspecified)	-5.4%	nt
O=c1[nH]n(Cc2ccccc2)c(=O)c2ccccc12	7.8%	0.0%
CC(=O)N1CCc2c(sc3c2c(=O)n(-c2ccccc2)c(=O)n3Cc2ccccc2Cl)C1	-5.0%	0.0%
CCCCn1c(N)c(N(CCOC)C(=O)CN(C)S(=O)(=O)c2ccc(Cl)cc2)c(=O)[nH]c1=O	3.1%	11.7%
COc1cc2c(cc1OC)-c1nnc(-c3cccs3)n1C1(CCCC1)C2	3.5%	0.0%
CC(C)Sc1nnc(-c2ccc(S(=O)(=O)N3CCOCC3)cc2)n1C	-8.4%	3.4%
CC(=O)Nc1ccc(S(=O)(=O)N2CCC(N3CCCC3)CC2)cc1	2.9%	3.2%
COC(=O)c1sc(C(F)(F)F)c(-c2ccccc2)c1S(=O)(=O)N(C)C	-5.6%	-2.6%
Cc1ccccc1NC(=O)Cc1ccccc1	5.6%	-2.5%
CCN(C[C@H]1N[C@@](CC)(C(=O)OC)[C@H]2C(=O)N(Cc3ccccc3)C(=O)[C@@H]12)C(=O)COC	nt	0.6%
CC1(C)Cc2c(sc(N)c2C#N)C(C)(C)N1	7.4%	2.6%
O=C(Oc1cccc(NC2=NS(=O)(=O)c3ccccc32)c1)c1cccnc1	-6.1%	1.2%
COc1cc2c(cc1OC)C(Nc1ccc(S(N)(=O)=O)cc1)=NC(C)(C)C2	-4.3%	5.5%
O=C1NC(Cc2c[nH]c3ccccc23)C(=O)N1c1ccc(F)cc1 (stereo unspecified)	16.2%	3.8%
CCOCCCNC(=O)CN1C(=O)COc2ccc(S(=O)(=O)N3CC(C)CC(C)C3)cc21 (stereo unspecified)	0.1%	0.8%
COc1ccc(-c2nnnn2C(C)C)cc1	17.6%	nt
CC1(C(=O)N2CC3(CC(c4cccc(NC(=O)CC(c5ccccc5)c5ccccc5)c4)=NO3)C[C@@H]2C(N)=O)CC1 (stereo partly specified)	-0.8%	-2.4%
O=C1CC(N2CCC(O)(c3ccc(Cl)cc3)CC2)C(=O)N1 (stereo unspecified)	0.2%	5.4%
COc1ccc(S(=O)(=O)n2nc(OC(=O)c3ccco3)cc2N)cc1	?	-1.0%
CC(C)c1ccc(NC(=O)CCNS(=O)(=O)c2cc(Br)cnc2N)cc1	-3.4%	3.2%

Random excerpt: 2 records from the list.
SMILES	N370S GC	TDP1 block
CC1(C(=O)N2CC3(CC(c4cccc(NC(=O)CC(c5ccccc5)c5ccccc5)c4)=NO3)C[C@@H]2C(N)=O)CC1 (stereo partly specified)	-0.8%	-2.4%
CC1(C)Cc2c(sc(N)c2C#N)C(C)(C)N1	7.4%	2.6%

(listing goes on)
SMILES	N370S GC	TDP1 block
CC(=O)c1cc(CN2C(=O)c3ccccc3C2=O)cs1	1.6%	1.0%
O=S(=O)(Nc1nc2ccccc2nc1Cl)c1ccc(Cl)cc1	3.0%	2.4%
C/C(=N/NC(=O)c1ccccc1)C1=C(O)CC(C)(C)CC1=O	0.9%	5.6%
COc1ccccc1CNC(=O)COc1ccc([N+](=O)[O-])cc1	-8.3%	8.2%
Cc1cc(C(=O)Nc2nc3ccc(S(C)(=O)=O)cc3s2)c(C)o1	-9.0%	5.5%
Cc1ccccc1C(=O)N1CCC(C(=O)NCCc2ccc(S(N)(=O)=O)cc2)CC1	0.4%	5.2%
O=C(O)CCCCCn1c(SCc2cc(=O)n3ccccc3n2)nc2ccsc2c1=O	19.3%	2.6%
Cc1ccc(NC(=O)CN2CCCCCC2)cc1Br	-4.7%	nt
CCOCCCNCc1ccc(OC)c(OC)c1	-3.1%	-5.1%
COCCN(C(=O)CCC(=O)Nc1ccccn1)C(C(=O)NC(C)C)c1ccc(Cl)cc1 (stereo unspecified)	-3.4%	-7.5%
CC1(C)O[C@H]2C[C@@H]3[C@H]4CCC5=CC(=O)C=C[C@]5(C)[C@@]4(F)[C@@H](O)C[C@]3(C)[C@]2(C(=O)CO)O1	-7.8%	11.2%
Oc1ccccc1/C=N/Nc1ccccc1	-2.6%	2.6%
CCOc1ccc(NC(=O)CN(Cc2ccccc2)S(C)(=O)=O)cc1	-18.8%	2.5%
COc1cccc(CCNC(=O)COc2cccc3c2OC(C)(C)C3)c1	1.7%	3.3%
CCC1Oc2ccccc2N(Cc2ccccc2C)C1=O (stereo unspecified)	-3.5%	-5.9%
Cn1c(NC(=O)c2ccc(C(C)(C)C)cc2)cc(=O)n(C)c1=O	0.0%	3.1%
CC(=O)c1cc2c(cc1NC(=O)CSc1nnc(C)s1)OCO2	?	-2.2%
COc1ccc(NS(=O)(=O)c2cccc(C(=O)NN=Cc3ccc(O)c(OC)c3)c2)cc1	nt	0.0%
COc1ccc(NC(=O)Cn2nc3n(c2=S)CCC3)cc1	5.7%	7.8%

A portion from the list above, for reference:
SMILES	N370S GC	TDP1 block
C/C(=N/NC(=O)c1ccccc1)C1=C(O)CC(C)(C)CC1=O	0.9%	5.6%
COc1ccccc1CNC(=O)COc1ccc([N+](=O)[O-])cc1	-8.3%	8.2%
Cc1cc(C(=O)Nc2nc3ccc(S(C)(=O)=O)cc3s2)c(C)o1	-9.0%	5.5%
Cc1ccccc1C(=O)N1CCC(C(=O)NCCc2ccc(S(N)(=O)=O)cc2)CC1	0.4%	5.2%
O=C(O)CCCCCn1c(SCc2cc(=O)n3ccccc3n2)nc2ccsc2c1=O	19.3%	2.6%
Cc1ccc(NC(=O)CN2CCCCCC2)cc1Br	-4.7%	nt
CCOCCCNCc1ccc(OC)c(OC)c1	-3.1%	-5.1%
COCCN(C(=O)CCC(=O)Nc1ccccn1)C(C(=O)NC(C)C)c1ccc(Cl)cc1 (stereo unspecified)	-3.4%	-7.5%
CC1(C)O[C@H]2C[C@@H]3[C@H]4CCC5=CC(=O)C=C[C@]5(C)[C@@]4(F)[C@@H](O)C[C@]3(C)[C@]2(C(=O)CO)O1	-7.8%	11.2%
Oc1ccccc1/C=N/Nc1ccccc1	-2.6%	2.6%
CCOc1ccc(NC(=O)CN(Cc2ccccc2)S(C)(=O)=O)cc1	-18.8%	2.5%
COc1cccc(CCNC(=O)COc2cccc3c2OC(C)(C)C3)c1	1.7%	3.3%
CCC1Oc2ccccc2N(Cc2ccccc2C)C1=O (stereo unspecified)	-3.5%	-5.9%
Cn1c(NC(=O)c2ccc(C(C)(C)C)cc2)cc(=O)n(C)c1=O	0.0%	3.1%
